PMP22 txn prim – modulators of PMP22 gene transcription in S16 Schwann cells. S16 Pmp22-F2sN Schwann cells (luciferase reporters placed in the Pmp22 gene), FLuc/NLuc coincidence luminescence, 24 h. Potency, µM (top dose mostly 57.5 µM), inactives show at the highest dose activity change, negative = inhibition, hits mostly inhibitors. 43,000 compounds, 2% hits. AID 1508649; active = clear falling dose curves in both reporters; inconclusive = both reporters move, but less clearly or upward; inactive = either reporter flat; the % is the NLuc reporter signal; also: % is scaled to controls: 0 for no effect and ±100 for the full control effect; some results filed as inactive show a strong effect at the top dose
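qHTS, 1536-well. Cells seeded, compounds added by pin tool, 24 h 37C. Nano-Glo reagent 1 (lysis/FLuc), 10 min RT, read; Stop&Glo, 10 min RT, read NLuc.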
HTT prom inh – inhibits huntingtin promoter activity; AID 1508623; Potency, µM (top dose mostly 57.5 µM), for the others: at the top dose activity change, negative = inhibition, actives largely listed as inhibitors; HEK293 HTT promoter firefly luciferase reporter (activity 0% = vehicle and -100% = no light), 24 h; 48,000 compounds, 0.93% hits; active = well fitted inhibition curve with a large enough effect; inconclusive = small, poorly fitted or top-dose-only effect; inactive = no such curve, though single readings can be large or run the other way; also: nearly all actives have a fitted effect of over 50% in size
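Quantitative HTS used concentration series of up to 57.5 uM final on HEK293 luciferase reporter cells, 24 h at 37 degrees C. Readout was Dual-Glo firefly luminescence.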
* = called active by the depositor; ? = inconclusive; / = not tested or not shown; [ ] = dose if it differs, or a comment. Potency is read from the fitted curve at half-maximal effect.

nr	SMILES	PMP22 txn prim	HTT prom inh
1	COc1ccc(-c2nnc(Nc3ccc(OC)c(C(N)=O)c3)c3ccccc23)cc1	?	-17%
2	N#Cc1ccccc1NC(=O)c1cnc(N2CCOCC2)c2ccccc12	-7%	-4%
3	CCC(C(=O)N1CCN(c2ccccc2)CC1)n1nc(C)n2c(cc3sccc32)c1=O (configuration not stated)	-28%	?
4	COCCNC(=O)c1ccc(CSc2nc3ccncc3n2Cc2ccccc2)cc1	-2%	9%
5	CC(C)(C)OC(=O)N1CCC(c2c(C(=O)Nc3ccc4c(c3)OCO4)cnn2-c2ccc(F)cc2F)CC1	?	10%
6	CCOC(=O)c1ccc(NC(=O)CCc2nc3cccnc3n2Cc2cccs2)cc1	-17%	-16%
7	Cc1cc(C)c(NC(=O)C2CCN(c3nnc(C)c4c(C)n(-c5ccccc5)nc34)CC2)c(C)c1	?	?
8	Cc1ccc(S(=O)(=O)c2cnc(SCC(=O)Nc3ccccc3C(F)(F)F)[nH]c2=O)cc1C	-66%	-9%
9	c1ccc2c(c1)CCc1ccccc1N2	/	10%
10	CCOc1ccccc1CNC(=O)c1cc(-c2ccc(C)c(C)c2)nc2ccccc12	?	-12%
11	Cc1cccc(NC(=O)CCn2cnc3ccccc3c2=O)c1	-1%	-14%[11.5 µM]
12	O=C(Cn1ncn2nc(-c3cccs3)cc2c1=O)NCc1ccc(Cl)cc1	-3%	-1%

Complete entries, looked up by structure. Order of values: PMP22 txn prim	HTT prom inh
CC(C)(C)OC(=O)N1CCC(c2c(C(=O)Nc3ccc4c(c3)OCO4)cnn2-c2ccc(F)cc2F)CC1 as listed: ?	10%
COc1ccc(-c2nnc(Nc3ccc(OC)c(C(N)=O)c3)c3ccccc23)cc1 as listed: ?	-17%
Cc1cccc(NC(=O)CCn2cnc3ccccc3c2=O)c1 as listed: -1%	-14%[11.5 µM]

Next part.
nr	SMILES	PMP22 txn prim	HTT prom inh
13	Cc1c(C(=O)Nc2ccc(F)cc2F)oc2ccc3c(c12)C(=O)CC(C)(C)O3	4%	?
14	NC(=O)C(c1ccccc1)(c1ccccc1)[C@@H]1CCN(CCc2ccc3c(c2)CCO3)C1	/	-1%
15	Cc1ccc(C)c(-c2nc(Cn3c(=O)cc(-c4ccccc4)c4c(C)nn(C)c43)c(C)o2)c1	-5%	-23%
16	O=C(Cn1cc(SCc2ccccc2F)c2ccccc21)N1CCCCC1	-15%	15%
17	CCc1nn(CC(=O)N2CCN(c3cccc(C(F)(F)F)c3)CC2)c(=O)c2cccn12	5%	-16%
18	Cc1cccc(N2CCN(CCNC(=O)C3COc4ccccc4C3)CC2)c1C (configuration not stated)	-7%	?
19	Cc1cccc(-c2noc(-c3ccccc3OCC(=O)Nc3ccc([N+](=O)[O-])cc3)n2)c1	1%	0%
20	COc1ccc(-n2c(-c3ccc(C)cc3)cc3c2CC(C)(C)CC3=O)cc1Cl	?	4%
21	CCOC(=O)c1c(-c2ccc(C)cc2)csc1NC(=O)c1nc(SCC)ncc1Cl	-3%	12%
22	CCOc1c(Cl)cc(CNc2ccc3[nH]c(=O)[nH]c3c2)cc1OC	?	-19%
23	O=C(Nc1ccc(Cl)c(-c2nc3ccccc3o2)c1)c1cccc2c(Cl)cccc12	2%	-15%
24	O=C(NCc1ccccc1)C(=O)NCC(c1cccs1)S(=O)(=O)c1ccccc1 (configuration not stated)	?	-39%

(listing goes on)
nr	SMILES	PMP22 txn prim	HTT prom inh
25	COc1ccc(CN(Cc2ccco2)c2cnc(S(C)(=O)=O)nc2C(=O)Nc2ccc(C)c(Cl)c2)cc1	-18%	-28%
26	CCC(=O)Nc1cccc(OCc2cc(=O)n3cc(C)ccc3n2)c1	24%	70%[activator]
27	Cc1ccn2c(Nc3ccc4c(c3)OCO4)c(-c3ccco3)nc2c1	?	54%[activator]
28	CCCCN(CC)CCNC(=O)Cn1cnc2sc(C)c(S(=O)(=O)N3CCN(c4ccccc4OC)CC3)c2c1=O	-9%	-19%
29	CCn1ccc2c(OCC(=O)Nc3ccc(OC)cc3OC)cccc2c1=O	-18%	0%
30	COc1ccc(CCNC(=O)CCc2c(C)nc3cc(-c4ccc(Cl)cc4)nn3c2C)c(OC)c1	-28%	2µM*
31	Cc1ccccc1CNC(=O)CCSCc1cnn(-c2ccccc2)c1-n1cccc1	-32%	-30%
32	COc1ccc(NC(C)=O)cc1NC(=O)C1(c2cccs2)CCOCC1	?	-15%
33	Cn1c(=O)c2sccc2n2c(CCC(=O)Nc3ccc(F)cc3)nnc12	4%	7%
34	CC(C)(C)OC(=O)N1CCC(c2c(C(=O)N3CCN(C(=O)c4ccco4)CC3)cnn2-c2cccc(F)c2)CC1	-25%	2%
35	Cc1ccc2onc(CC(=O)N3CCN(c4cccc(Cl)c4)CC3)c2c1	?	?
36	O=C(Nc1nc2c(F)cc(F)cc2s1)c1ccc(S(=O)(=O)N2CCc3ccccc32)cc1	?	22µM*

Among those listed so far, 4 contain a furan ring, fused or not.
nr	SMILES	PMP22 txn prim	HTT prom inh
13	Cc1c(C(=O)Nc2ccc(F)cc2F)oc2ccc3c(c12)C(=O)CC(C)(C)O3	4%	?
25	COc1ccc(CN(Cc2ccco2)c2cnc(S(C)(=O)=O)nc2C(=O)Nc2ccc(C)c(Cl)c2)cc1	-18%	-28%
27	Cc1ccn2c(Nc3ccc4c(c3)OCO4)c(-c3ccco3)nc2c1	?	54%[activator]
34	CC(C)(C)OC(=O)N1CCC(c2c(C(=O)N3CCN(C(=O)c4ccco4)CC3)cnn2-c2cccc(F)c2)CC1	-25%	2%

Other entries
nr	SMILES	PMP22 txn prim	HTT prom inh
37	COc1ccc(C2CC(=O)c3c([nH]c(C(=O)OCc4ccccc4)c3C)C2)cc1OC (configuration not stated)	-29%	?
38	CCN(CC)C(=O)CSc1nc2c(c(=O)n(C)c(=O)n2C)n1Cc1ccccc1	-25%	14%
39	CC1CCN(c2cc3c(cc2F)c(=O)c(S(=O)(=O)c2cccc(Cl)c2)cn3Cc2ccccc2)CC1	-7%	-8%
40	CCN1c2ccccc2-c2nc(SCC(=O)Nc3cc(OC)cc(OC)c3)ncc2S1(=O)=O	?	-16%
41	CCc1ccc(NCc2cc3cc(OC)c(OC)cc3n(CC(=O)Nc3cc(C)ccc3C)c2=O)cc1	11µM*	-18%
42	Cc1cccc(OCC(=O)Nc2ccccc2C(=O)OCc2cc(=O)n3nc(C)sc3n2)c1	21%	-11%
43	O=C(c1cn(CCOc2ccc(Cl)cc2)c2ccccc12)C1CCCCC1	?	?
44	COc1ccc(OC)c(CNC(=O)c2ccccc2NC(=O)c2nsc3ccccc23)c1	?	3%
45	Cc1ccc(CNC(=O)c2ccc(Nc3nc4ccccc4n4nnnc34)cc2)cc1	8µM*	26%
46	Cc1cccc(NC(=O)Cn2c(=O)n(CC3CCC(C(=O)NCCc4ccccc4)CC3)c(=O)c3ccccc32)c1C (configuration not stated)	9%	-13%
47	CCCCN(CCCC)CCNC(=O)c1cn(C)c2ccc(S(=O)(=O)N3CCOCC3)cc2c1=O	-44%	-10%[11.5 µM]
48	Cc1ccc2oc(C(=O)Nc3ccc(S(=O)(=O)N4CCCCCC4)cc3)cc(=O)c2c1	-11%	-4%

Later entries:
nr	SMILES	PMP22 txn prim	HTT prom inh
49	CCCCN(CC)C(=O)C1CCCN(c2ncnc3c2nc2n3CCCCC2)C1 (configuration not stated)	?	?
50	O=C(CSc1ccc(-c2cccs2)nn1)Nc1cccc(F)c1	-49%	?
51	COc1ccc(C)cc1NC(=O)c1cc(S(=O)(=O)NCCC2=CCCCC2)ccc1F	?	?
52	COc1ccc(-c2noc(N3CCN(c4ccc(C)cc4)C(C)C3)n2)cc1OC (configuration not stated)	-44%	?
53	CCN(C(=O)C1CCCN(S(=O)(=O)c2c(C)noc2/C=C/N(C)C)C1)c1cccc(C)c1 (configuration not stated)	5%	?
54	Cc1ccc(CNCc2c(C(=O)O)n(Cc3ccc(C)cc3)c3cc(C)ccc23)cc1	?	?
55	CCC(C)NC(=O)c1sc2nc(C)c(C(=O)Nc3ccc(C)cc3C)c(-c3ccc(Br)cc3)c2c1N (configuration not stated)	-22%	-14%
56	COc1cc(NC(=O)CCS(=O)(=O)c2nc(-c3ccc4c(c3)OCO4)cc(C(F)(F)F)n2)cc(OC)c1OC	-40%	-3%
57	CCc1c(C)sc2c1CCN(C(=O)Nc1ccc(F)c(Cl)c1)C2c1ccc(F)cc1 (configuration not stated)	?	?
58	Cc1n[nH]c(C)c1Cc1sc2c(c1C(=O)N1C[C@H](O)CO1)c(=O)n(C)c(=O)n2CC(C)C	/	-1%
59	COc1ccc(CNC(=O)C(=O)NCC(c2cccnc2)N2CCN(c3ccccc3)CC2)cc1 (configuration not stated)	?	13µM*
60	CCOc1ccc(-c2csc(/C(C#N)=C/c3ccc(Br)cc3)n2)cc1	-6%	-2%

The list continues.
nr	SMILES	PMP22 txn prim	HTT prom inh
61	CCc1ccc(NC(=O)CSc2ccnc(=O)[nH]2)cc1	6%	18%
62	Cn1c(=NC(=O)c2ccc3c(c2)OCCO3)sc2cc(S(C)(=O)=O)ccc21	11%	-13%
63	CCCn1c2ccccc2c2cnn(CC(=O)NCc3cc(OC)ccc3OC)c(=O)c21	?	6%
64	Cc1cccc(CCNC(=O)C2CCCN(S(=O)(=O)c3ccc4c(c3)oc(=O)n4C)C2)c1 (configuration not stated)	-11%	-25%
65	N[C@@H](CSSC[C@H](N)C(=O)O)C(=O)O	/	9%[0.739 µM]
66	O=C(CN1C(=O)C2CCCCN2c2ccc(C(=O)N3CCCC3)cc21)NCc1ccccc1 (configuration not stated)	-2%	-9%
67	COc1ccc(C(=O)Nc2ccc3c(c2)CCCN3C(=O)c2cccs2)c(OC)c1	?	?
68	Cc1ccc2oc(=O)c3cc(C(=O)N4CCN(c5ccccc5F)CC4)sc3c2c1	1%	3%
69	CCOc1ccc2nc(NC(=O)CS(=O)(=O)c3ccc(Cl)cc3)sc2c1	-32%	-20%
70	COc1cc2c(cc1OC)[C@@H]1Cc3ccc(OC)c(OC)c3CN1CC2	/	-5%
71	O=C(Cn1c(=O)n(-c2ccc(Cl)cc2)c(=O)c2c3c(sc21)CCC3)c1ccccc1	-19%	-11%
72	CCC(Sc1nc2ncccc2o1)C(=O)Nc1cccc(C)c1 (configuration not stated)	-6%	24%

The listing continues:
nr	SMILES	PMP22 txn prim	HTT prom inh
73	O=C(COc1ccccc1F)Nc1nnc(SCc2cc(=O)c3ccccc3[nH]2)s1	-21%	-22%
74	Cc1ccc(Cl)cc1NC(=O)Nc1nnc(N2CCCC(C)C2)s1 (configuration not stated)	-13%	4%
75	C/C=C/c1ccc(O)c(OC)c1	/	3%
76	Cc1ccc(N(CC(=O)Nc2cccc(Cl)c2)S(=O)(=O)c2cccs2)cc1	-12%	?
77	Cc1ccc(-n2ncc(C(=O)N3CCN(c4cccc(C)c4C)CC3)c2C2CCNCC2)c(C)c1	?	-5%
78	CCOC(=O)CSc1nc2sc3c(c2c(=O)n1-c1ccccc1)CCC(C(C)(C)C)C3 (configuration not stated)	0%	-10%
79	CCOC(=O)c1cc2c(=O)n3ccccc3nc2n(CC2CCCO2)c1=NC(=O)c1ccccc1Br (configuration not stated)	?	-7%
80	O=C(c1ccc2c(c1)N(Cc1ccccc1)C(=O)c1ccccc1S2(=O)=O)N1CCN(c2ccccc2)CC1	?	-13%
81	O=C(NCC(c1ccc(Cl)cc1)N1CCCCC1)c1ccccc1 (configuration not stated)	7%	-11%
82	COc1ccc(-c2oc3ncn4nc(COc5c(C)cccc5C)nc4c3c2-c2ccc(OC)cc2)cc1	7%	-7%[11.5 µM]
83	COc1cccc(NC(=O)CN(Cc2ccccc2)S(=O)(=O)c2ccc3nc(C)sc3c2)c1	2%	?
84	COc1cc(OC)c(N(C)C(=O)c2nn(C)c3c2CSc2ccccc2-3)cc1Cl	-22%	-7%

Additional results:
nr	SMILES	PMP22 txn prim	HTT prom inh
85	COc1cccc(N2CCN(C(=O)c3cccn3-c3nnc(N4CCCCC4)s3)CC2)c1	-10%	-10%
86	O=C(c1noc2c1CCCCC2)N1CCN(c2ccc(Cl)cc2)CC1	-11%	?
87	CCCCN(CC)CCNC(=O)CN1C(=O)COc2ccc(S(=O)(=O)N3CCOCC3)cc21	2%	-16%
88	COc1cccc(NC(=O)CN2CCCN(S(=O)(=O)c3ccc(Br)cc3)CC2)c1	-26%	?
89	N#Cc1c(C(F)(F)F)cc(-c2cccs2)nc1SCC(=O)Nc1ccc(F)cc1	?	-24%
90	O=C1OC2(c3ccccc31)c1cc(I)c(O)c(I)c1Oc1c2cc(I)c(O)c1I	/	-7%
91	Cc1cccc(OCC(=O)N(Cc2sccc2C)C2CCS(=O)(=O)C2)c1 (configuration not stated)	-9%	-15%
92	C=CCc1ccc(O)c(-c2ccc(O)c(CC=C)c2)c1	/	-14%
93	COc1cccc(CNCCSc2nnnn2C)c1OCc1ccccc1	?	-9%
94	CCSc1ncc(Cl)c(C(=O)N(Cc2ccc(C(C)(C)C)cc2)C2CCS(=O)(=O)C2)n1 (configuration not stated)	?	-27%
95	COc1cccc(C(=O)N2CCC(c3nc4ccccc4s3)CC2)c1	7%	?
96	CCc1ccc(CSc2nc(-c3ccccc3F)nc3c2Cc2c(CO)cnc(C)c2O3)cc1	?	-8%
97	CC(C)C(=O)Nc1ncc(-c2cc(C(F)F)nn2-c2c(Cl)cccc2Cl)s1	/	?

A few values from the entries so far:
compound 94 in HTT prom inh: -27%
compound 91 in HTT prom inh: -15%

Bioassay records from PubChem BioAssay.

These rows are one share of the data. The share of hits here may be higher or lower than overall.
